Bioassay records (PubChem)
Hsc70 ATP site = Hsc70 inhibitors, probe displacement, primary screen, biochemical, fluorescence polarization (AID 568) | displacement, % at 20 µM; hits with a dose series show IC50 in µM | Hsc70 fluorescence polarization, probe displacement; higher % means a stronger effect; strong numbers were not always called active | 83,000 tested, under 10 active;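 active = displacement above 50% without optical interference and an IC50 on retest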;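 note: ATPase domain with a fluorescein-tagged ATP probe; 0% = vehicle and 100% = excess ADP; read after one hour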
MT1-MMP reporter = inhibitors of MT1-MMP promoter transcription, cell-based, luciferase reporter, luminescence (AID 618) | MT1-MMP promoter luciferase reporter cells, luminescence | 87,000 tested, 0.62% active | calls from a first round at 10 µM; hits with a dose series show EC50 in µM;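 active = over half of the reporter light lost at 10 µM or EC50 under 50 µM; inactive = the rest and hits that failed the dose series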;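 note: actives suppress MT1-MMP promoter-driven transcription so potencies describe inhibitors; HT1080 fibrosarcoma cells; overnight exposure; toxic or luciferase-blocking compounds were not removed from the actives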
WNV NS2B-NS3 inh = blocks West Nile virus NS2B-NS3 protease activity | z-score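 (tested at a level between 10 and 100 µM)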 | WNV NS2B-NS3 protease, fluorogenic substrate Ex360/Em465; active compounds read low | 65,000 tested, 0.18% active | P06935;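 active = z-score at -3 or under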;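 note: score is relative to mean and spread of the compound wells of a plate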
Target sequence (P06935 1371-1501 limits assumed): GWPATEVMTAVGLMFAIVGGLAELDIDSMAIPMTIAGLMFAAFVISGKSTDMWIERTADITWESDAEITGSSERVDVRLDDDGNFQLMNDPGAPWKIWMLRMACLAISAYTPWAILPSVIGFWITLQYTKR
Target sequence (P06935 1502-1679 limits assumed): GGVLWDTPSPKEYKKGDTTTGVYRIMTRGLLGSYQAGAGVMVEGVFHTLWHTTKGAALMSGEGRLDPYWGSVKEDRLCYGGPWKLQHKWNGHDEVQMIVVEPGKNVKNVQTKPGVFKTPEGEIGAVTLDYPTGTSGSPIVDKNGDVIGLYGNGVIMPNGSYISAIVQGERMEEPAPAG
Numbers without * were called inactive; i = inactive; / = not tested or not shown; + = active, no number. The order is random. Share with any hit: about 0.87%.

Below each compound – Hsc70 ATP site	MT1-MMP reporter	WNV NS2B-NS3 inh
- O=C(O)c1cc2sccc2s1
→ 5.4%	i	-0.49
- Cc1cc(C)c(C#N)c(N2CCN(CCOc3ccc(Cl)cc3)CC2)n1
→ -1.0%	i	-0.23
- O=C(CCn1cnc2ccccc2c1=O)Nc1ccc2c(c1)OCCO2
→ 5.0%	i	-0.15
- CCn1c(C)nc2cc(C(=O)OCCC(F)(F)F)ccc21
→ 0.2%	i	0.43
- Cc1ccc(NC(=O)CSc2nc3ccccc3c(=O)n2CCCC(=O)N2CCCC2)cc1
→ 7.4%	i	-0.71
- OCCNc1nc(-c2ccccc2)c2ccccc2n1
→ -5.6%	i	1.09
- COc1ccccc1NC(=O)N1CCc2[nH]c3ccc(F)cc3c2C1
→ 0.5%	i	-0.06
- COc1ccc(-c2nc(-c3ccccc3)c(-c3cc([N+](=O)[O-])ccc3C)[nH]2)cc1OC
→ -0.4%	i	/
- COCCCNc1nc2c(c(=O)[nH]c(=O)n2C)n1CC(O)COc1cccc(C)c1 (centres undefined)
→ -0.1%	i	-0.1
- CCOC(=O)c1ccc(NC(=O)c2cnccn2)cc1
→ -10.8%	i	-0.66
- Cn1nnnc1SCc1nc2ccccc2[nH]1
→ -2.8%	i	-0.72
- O=C(Nc1nc2cc3c(cc2s1)OCCO3)c1cccc(S(=O)(=O)N2CCOCC2)c1
→ -0.5%	i	-1.33
- COc1ccccc1N1CCN(C(=O)COc2ccc(C)cc2Br)CC1
→ 0.7%	i	-0.51
- COC(=O)c1ccc(-c2ccco2)n1Cc1nc(-c2ccc(OC)c(OC)c2)oc1C
→ -20.2%	i	0.62
- CC(Cc1cccs1)NC(=O)Nc1ccc(Cl)c(Cl)c1 (centres undefined)
→ -5.1%	i	/
- Cc1ccc(S(=O)(=O)Nc2cc(NC(=O)CN3CCOCC3)ccc2Cl)cc1
→ -5.9%	i	0.45
- CCN(CC)c1ccc(-c2nnc(SCC(=O)Nc3ccccc3C#N)n2-c2ccccc2)cc1
→ 1.6%	i	/
- Cc1cc(NC(=O)NC(=O)c2ccc(F)cc2F)n[nH]1
→ 2.6%	i	-0.27
- C=CCN1C(=O)C2(c3ccccc31)C1CCCC=C1C(C#N)=C(N)C2(C#N)C#N (centres undefined)
→ 1.1%	i	1.69
- O=C(Nc1cccc2c1CCCC2)c1ccncc1
→ 0.1%	i	/
- O=C(CSc1nc(-c2ccccc2)cs1)NCc1ccco1
→ -2.1%	i	0.01
- N#CCC(=O)NCC1(c2ccccc2)CCCC1
→ -6.7%	i	-1.14
- O=C(COC(=O)c1ccccc1NC(=O)c1ccco1)NCc1ccc2c(c1)OCO2
→ -0.5%	i	-0.51
- N#Cc1ncc(C(F)(F)F)cc1Sc1ccccc1N
→ 3.5%	i	/
- O=C1COc2ccc(-c3csc(NCC4CCCO4)n3)cc2N1 (centres undefined)
→ -7.1%	i	-1.52
- COC(=O)c1sccc1NC(=O)C1CC2CCC1C2 (centres undefined)
→ 1.5%	i	1.7
- COC(=O)CSC1=C(C#N)C(c2ccsc2)CC(=O)N1 (centres undefined)
→ -0.8%	i	/
- CC(NC(=O)Cc1cccs1)c1ccc2c(c1)OCO2 (centres undefined)
→ -10.1%	i	0.19
- O=C(CCN1C(=O)COc2ccccc21)NCCC1=CCCCC1
→ -1.8%	i	-1.37
- O=C(NCCO)c1ccc2c(c1)S(=O)(=O)c1ccccc1C2=O
→ 4.6%	i	0.16
- COc1cccc(C(=O)/C=C/Nc2cccc(O)c2)c1
→ 1.7%	0.18µM*	/
- CSCC[C@H](NC(=O)OC(C)(C)C)C(=O)N1CCC(C(=O)N[C@H](C(=O)O)C(C)C)CC1
→ -6.2%	i	0.65
- OCCSc1nnc(Nc2ccccc2)s1
→ -4.7%	i	0.34
- CCCCc1nnc(NC(=O)CSc2nc(=O)cc(N)n2-c2ccccc2)s1
→ 2.9%	i	0.22
- Cc1cc(=O)[nH]c(SCc2cc(=O)n3nc(C)sc3n2)n1
→ -0.5%	i	1.08
- CCC(C(=O)Nc1nccs1)c1ccccc1 (centres undefined)
→ -1.7%	i	-0.7
- COc1ccccc1N1C(N)=NC(N)=NC1(C)C
→ 6.6%	i	1.1
- COc1ccccc1C(=O)N(Cc1ccco1)C1CCS(=O)(=O)C1 (centres undefined)
→ -1.9%	i	-0.17
- Cc1cccc(C(=O)N2CCN(C(=O)c3cccc(C)c3)C(C)C2)c1 (centres undefined)
→ 4.6%	i	-1.09
- COc1ccccc1OCc1csc(NC(=O)c2ccco2)n1
→ 5.0%	i	-0.75
- CCOC(=O)CSc1nc(N)c(C#N)c(-c2ccc(OC)cc2)c1C#N
→ -7.2%	i	0.76
- COC(=O)c1ccsc1NC(=O)CN1C(=O)CCC1=O
→ 1.6%	i	1.61
- CCc1nc(N[C@@H](Cc2c[nH]c3ccccc23)C(=O)O)c2oc3ccccc3c2n1
→ 2.2%	i	-0.66
- COCCn1c(SCC(=O)N2CCCc3ccccc32)nc2cccnc21
→ -12.0%	i	0.81
- CCOC(=O)COn1c(=O)c(-c2ccco2)[n+]([O-])c2ccccc21
→ -8.8%	i	0.01
- Cc1nn(-c2ccc(F)cc2F)c2c1-c1nc(N3CCCC3)ncc1CC2
→ 0.8%	i	0.91
- Cc1ccc(NC(=O)c2ccc3c(c2)N(CC(=O)N2CCCCC2)C(=O)C(C)(C)O3)cc1
→ 1.2%	i	-0.97
- COc1ccc(CNC(=O)CN(CC2CCCO2)C(=O)CNS(=O)(=O)c2ccc(F)cc2)cc1 (centres undefined)
→ 3.1%	i	-1.28
- COc1ccccc1NC(=O)C1=C(C)Nc2nc(CCCO)nn2C1c1cccnc1 (centres undefined)
→ 8.7%	i	0.38
- Cn1c(/C(C#N)=C(\O)CN2CCN(Cc3ccccc3)CC2)nc2ccccc21
→ -1.6%	i	0.48
- ON1C(c2ccccc2)CC2(O)c3nonc3CCC12 (centres undefined)
→ 2.1%	i	1.11
- CC(=O)C1=C(O)C(=O)N(CCNCCO)C1c1ccccc1 (centres undefined)
→ 5.1%	i	/
- C#CCOC(=O)CCC(=O)NCCc1ccccc1
→ -0.7%	i	2.31
- O=C(Cn1nnc(-c2ccc(CN3CCOCC3)cc2)n1)Nc1nc(-c2ccccc2)cs1
→ -2.2%	i	1.47
- O=S(=O)(Cc1ccccc1)/C1=C(\N2CCOCC2)CCCCCC1
→ -0.5%	i	0.34
- O=C(CNC(=O)c1ccco1)OCC(=O)c1ccc2c(c1)CCCC2
→ 0.1%	i	0.2
- Cc1cc(C)c2nc(NC(=O)c3cc(C)on3)sc2c1
→ -5.1%	i	/
- CCOC(=O)CC1=CSC2=NS(=O)(=O)CCN12
→ 2.5%	i	0.24
- COc1cccc(OCCCCCN2CCOCC2)c1
→ 3.9%	i	0.77
- Cc1ccc2nc(SCC(=O)N3CCCC3)[nH]c2c1
→ 3.4%	i	0.22

Some of the entries so far, as tab-separated lines.
compound	Hsc70 ATP site	MT1-MMP reporter	WNV NS2B-NS3 inh
COc1ccccc1NC(=O)C1=C(C)Nc2nc(CCCO)nn2C1c1cccnc1 (centres undefined)	8.7%	i	0.38
COC(=O)c1ccsc1NC(=O)CN1C(=O)CCC1=O	1.6%	i	1.61

(more compounds)
Below each compound – Hsc70 ATP site	MT1-MMP reporter	WNV NS2B-NS3 inh
- c1ccc(NC2=NCCCCS2)cc1
→ 2.6%	i	/
- CCCCn1c(-c2ccccc2)nc2c(=O)n(C)c(=O)[nH]c21
→ -3.7%	i	0.87
- CCOCCn1c(SCC(=O)OCc2ccccc2)nc2c1c(=O)[nH]c(=O)n2C
→ -0.4%	i	-0.76
- O=C(Nc1c(F)cc(F)cc1Br)c1ccco1
→ -2.7%	i	-0.43
- O=C(/C=N\O)NCCCNCc1ccccc1
→ 1.1%	i	-0.53
- COC(=O)c1[nH]c2cccc(OC)c2c1NC(=O)CCN1CCC(C(N)=O)CC1
→ -4.3%	i	0.03
- CN=c1sc2ccccc2n1CC(O)COCc1ccco1 (centres undefined)
→ 2.3%	i	0.21
- CNC(=O)c1cc(C)c(-c2ccccc2)s1
→ -3.1%	i	0.92
- CC1=C(C(=O)Nc2ccccc2)C2(CCCCC2)C(C#N)=C(SCC(N)=O)N1
→ 3.6%	i	/
- O=C(Cn1cc(C(=O)c2ccco2)c2ccccc21)NC1CCCC1
→ -2.6%	i	-1.3
- COC(=O)C1=C(C)NC(=O)C1(NS(=O)(=O)c1ccc(C)cc1)C(F)(F)F (centres undefined)
→ 3.4%	i	/
- CN(Cc1ccccc1)Cc1nc2c(c(=O)n(C)c(=O)n2C)n1Cc1ccccc1Cl
→ -2.9%	i	1.73
- CCN1C(=O)N(c2ccc(Cl)cc2)C(C)=CC1(C)C
→ 3.4%	i	/
- CCCn1c2c(c(O)c(C(=O)Nc3ncccc3O)c1=O)CCCC2
→ -6.3%	i	1.09
- Cc1ccc2cc(CN(Cc3nnnn3C3CCCCC3)CC3CCCO3)c(=O)[nH]c2c1 (centres undefined)
→ 3.9%	i	-0.65
- CCN(CC)CCNc1c2c(c(C#N)c3nc4ccccc4n13)CCCC2
→ -0.1%	i	/
- COc1ccc2[nH]c(=O)c(CN(CCc3ccccc3)C(C)=O)cc2c1
→ 2.3%	i	/
- O=P(O)(CCc1ccccn1)CN1CCOCC1
→ 0.6%	i	0.01
- CC1Cc2cc(/C(O)=C3/C(=O)C(=O)N(Cc4ccco4)C3c3cccs3)ccc2O1 (centres undefined)
→ -1.6%	i	-0.89
- CN=c1scc(C)n1/N=C/c1ccc2c(c1)OCO2
→ -4.4%	+	-0.47
- COC(=O)c1c(F)c(F)c(NCCO)c(F)c1F
→ -3.4%	i	1.17
- CCCCS(=O)(=O)c1sc2nc(C)cc(C)c2c1N
→ 1.2%	i	1.67
- CN(C1CCCCC1)S(=O)(=O)c1ccc(NC(=O)c2ccco2)cc1
→ -4.0%	i	-0.06
- CCCc1nnc(NC(=O)CN2C(=O)c3ccccc3C2=O)s1
→ -0.5%	i	/
- CCN1CCN(C(c2nnnn2Cc2ccc3c(c2)OCO3)C(C)C)CC1 (centres undefined)
→ -1.1%	i	/
- O=c1cc(Cn2nnc(-c3ccc(Cl)cc3)n2)nc2sccn12
→ 6.4%	i	1.1
- CCn1c(COc2ccc(OC)cc2)nnc1SCC(=O)Nc1cc(OC)ccc1OC
→ -1.7%	i	-0.65
- Cc1ccc2nc(NC(=O)C3CCCN(S(=O)(=O)c4cccc5nsnc45)C3)sc2c1 (centres undefined)
→ -40.8%	i	-2.16
- Cc1csc(NC(=O)C2CCCN(S(=O)(=O)c3cccnc3)C2)n1 (centres undefined)
→ 5.1%	i	2.61
- CCCCN1C(=O)c2ccc(C(=O)Nc3cccc(C)c3C)cc2C1=O
→ 4.7%	i	/
- COCCNC(=O)Cn1c(=O)n(Cc2ccco2)c(=O)c2ccccc21
→ -1.2%	i	/
- Cc1ccc(NC(=O)C2CC(=O)NC(N3CCCCC3)=N2)cc1Cl (centres undefined)
→ 1.3%	i	0.02
- CCOc1ccc(-c2nnc(NC(=O)c3ccc(OCC(C)C)c(OC)c3)o2)cc1
→ -0.2%	i	1.74
- O=C(OCC(=O)N1CCC(Cc2ccccc2)CC1)c1ccc[nH]c1=O
→ 3.6%	i	0.53
- COc1ccc(NC(=O)Nc2c(C)n(-c3ccccc3)c(=O)n2C)cc1OC
→ 2.2%	i	-0.31
- CCC(C)C(NC(C)=O)C(=O)NC(=O)NC(c1ccccc1)c1ccccc1 (centres undefined)
→ 1.7%	i	/
- COc1ccc(C2=Nn3c(nnc3-c3ccco3)SC2)cc1OC
→ 2.5%	i	/
- Cc1cccc(N2CCN(C(=O)NCc3ccc(Cl)cc3)CC2)c1
→ -2.6%	i	/
- COc1ccc(N2CCN(CCNC(=O)C3CCN(S(=O)(=O)c4cccs4)CC3)CC2)cc1
→ 1.6%	i	-0.18
- c1ccc(CNc2ccc(CNc3ncn[nH]3)cc2)cc1
→ -0.4%	i	/

Compound profiles, as listed above. Order of values: Hsc70 ATP site, MT1-MMP reporter, WNV NS2B-NS3 inh
`O=P(O)(CCc1ccccn1)CN1CCOCC1` is listed with 0.6%, i, 0.01
`COc1cccc(OCCCCCN2CCOCC2)c1` is listed with 3.9%, i, 0.77
`O=C(Nc1cccc2c1CCCC2)c1ccncc1` is listed with 0.1%, i, /
`c1ccc(NC2=NCCCCS2)cc1` is listed with 2.6%, i, /

(continued)
Below each compound – Hsc70 ATP site	MT1-MMP reporter	WNV NS2B-NS3 inh
- COc1ccc(C(O)c2nccn2C)cc1 (centres undefined)
→ -1.3%	i	/
- CCOC(=O)c1cc2cc(-c3c(C(=O)OCC)oc4cc(O)cc(O)c4c3=O)ccc2o1
→ 6.0%	i	1.44
- O=C(CNC(=O)c1ccco1)OCc1c(F)cccc1Cl
→ -0.5%	i	1.39
- CC1(C)CCCC2=C1CC1C(=O)N(c3ccccc3)C(=O)C1C2 (centres undefined)
→ -3.3%	i	1.61
- CCC(C)NC(=O)c1cnn2c(C)c3c(nc12)CCCC3 (centres undefined)
→ -4.4%	i	0.52
- Cc1ccc2nc(NC(=O)c3cccs3)sc2c1
→ 1.4%	+	1.71
- N#C/C(=C/c1ccc(N2CCOCC2)o1)c1nc2ccccc2[nH]1
→ -252.7%	i	/
- CCOC(=O)c1cc(-c2cc3ccccc3o2)n[nH]1
→ 0.0%	i	0.12
- c1ccc(-c2nnc(-c3ccncc3)o2)cc1
→ -0.2%	i	/
- CCCCc1nc2ccccc2c(C(=O)O)c1C
→ -1.2%	i	0.72
- CC(C)(C)NC(=O)c1ccc2c(c1)N(CC(=O)N1CCN(c3ccc(F)cc3)CC1)C(=O)C(C)(C)O2
→ -2.5%	i	-1.07
